Env fusion inh: HIV envelope-mediated fusion inhibition; AID 651610; inhibition, % at 12.3 µM; HeLa-JRFL Env/CEM21 cell fusion, luciferase; 360,000 compounds, 1.1% hits;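 active = mean replicate inhibition score of at least 50 and every replicate individually at or above 50; inconclusive = only one of the two criteria met; inactive = mean below 50 and not all replicates reaching 50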;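 note: 0% = plate neutral controls and 100% = maraviroc near 300 nM; one replicate is shown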
MT1-MMP act inh: inhibitors of human MT1-MMP activation. GFP/RFP ratio change, % at 20 µM. AID 651647. 360,000 compounds, 0.061% hits. HT1080 RFP-PRO-GFP cells, GFP/RFP ratio fluorescence, overnight; percent of plate control window, DMSO zero. P50281;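 active = GFP/RFP ratio change of at least 30% with cell ATP level not reduced by more than half and red fluorescence within 50% of control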; note: strong numbers were not always called active
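Read-out: GFP/RFP fluorescence ratio; Test system: RFP-PRO-GFP reporter HT1080 cells; Compound dosing: single-point 20 µM compound, 1% DMSO; Times: overnight compound exposure at 37 °C.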
MT1-MMP act inh RFP: second read-out of MT1-MMP act inh, no call of its own (marks repeat the call); RFP signal change, %; measured here: RFP expression control read;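 0 = vehicle wells; hits needed this value within 50% of zero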
Active calls of the source: *; u = inconclusive. These rows are one share of the data (hit frequency here may not be typical).

Env fusion inh	MT1-MMP act inh	MT1-MMP act inh RFP	Structure
26	-2	-16	COc1ccccc1CCn1cnc(Cc2ccccc2)c1C(C)C
22	2	-8	CCCCCCCCN1C(=O)[C@H](CC(=O)N2CCN(C(=O)c3ccco3)CC2)C[C@@]2(C(=O)OC)CCCCC=C12
-39	2	6	CCOC(=O)C1=C(O)C(=O)C(C(=O)OCC)C1 (stereo not drawn)
40	5	-25	CCCc1nc2cc(C)c(Br)c(C)n2c1CC1CCCCC1
-22	4	5	CCOC(=O)[C@]12CCCC=C1N(Cc1ccco1)C(=O)[C@H](CC(=O)N1CCSCC1)C2
4	2	1	O=C(O)c1cc([N+](=O)[O-])ccc1Oc1ccccc1
43	1	-21	Nc1cc(S(=O)(=O)c2ccc(N3CCCCC3)c(N)c2)ccc1N1CCCCC1
-32	-2	-1	CC(=O)OC[C@@H]1CN(Cc2ccccc2)C[C@H](n2cnc3c(N4CCOCC4)ncnc32)O1
-10	-1	0	Cc1ccc(S(=O)(=O)N2C3CCCCC3O[C@H]2CC(=O)c2cccs2)cc1 (stereo partly drawn)
-12	-1	0	Fc1ccc(CCn2c(Cn3c(-c4cnccn4)nc4ccccc43)nc3ccccc32)cc1
-11	2	5	OC[C@@H]1CN(CCN2CCOCC2)C[C@H](n2cnc3c(N4CCCC4)ncnc32)O1
-62	-1	5	COc1cc(OC)cc(C(=O)NCC(=O)OCC(=O)NCc2ccco2)c1
-13	4	-8	CCc1ccc(N2C=C(C(=O)OC)C(c3ccccc3F)C(C#N)=C2N)cc1 (stereo not drawn)
2	2	2	O=C(Cn1cc(F)c(=O)[nH]c1=O)c1ccco1
-10	7	7	CCOC(=O)[C@]12CCC=C1N(Cc1ccco1)C(=O)[C@H](CC(=O)N1CCN(C(=O)C3CC3)CC1)C2

(continued)
Env fusion inh	MT1-MMP act inh	MT1-MMP act inh RFP	Structure
-40	5	1	CCCCCCCCN1C(=O)[C@H](CC(=O)NCCCN2CCCC2=O)C[C@@]2(C(=O)OC)CCCCC=C12
-21	0	1	CN1CCN(c2cccc3c2S(=O)(=O)N[C@H](Cc2ccccc2)CO3)CC1
12	7	0	O=C1NC(c2ccccc2)N=C2Oc3ccccc3C=C12 (stereo not drawn)
3	6	4	Cc1cccc(C)c1NC(=O)C1(C)CSCC(=O)N1Cc1ccco1 (stereo not drawn)
11	11	1	O=C1CCCCC1Nc1ccc(Br)cc1 (stereo not drawn)
-60	11	-2	CCOC(=O)N1CCc2cc(OC)c(OC)c3c2c1cc1cc(OC)c(OC)cc13
-3	-7	4	Nc1ccc(S(=O)(=O)Nc2nccs2)cc1N=Nc1ccccc1[N+](=O)[O-]
-23	6	-3	COc1ccc(CN2C(=O)C(CC(=O)NCCCCc3ccccc3)CC(C(=O)N3CCCCCC3)=C2C)cc1 (stereo not drawn)
6	8	9	CCOC(=O)C[C@@H]1OC[C@H](CO)N1S(=O)(=O)c1ccc(C)cc1
-1	-1	1	Cc1ccc(N(O)C(C)(C)C)cc1
12	5	-2	COC(=O)c1sc(NC(=O)CN2CCN(c3cccc(Cl)c3)CC2)c(C(=O)OC)c1C
-13	1	2	O=C1[C@@H](c2ccccc2)CC[C@@H]2C=CC[C@H]3CCN1[C@@H]32
2	25	-5	COC(=O)c1c[nH]c2c1-c1cc(C(=O)OCc3ccccc3)n(S(=O)(=O)c3ccc(C)cc3)c1C(=O)C2=O
u	0	-10	Cc1ccc(S(=O)(=O)N2CCC(=O)N([C@H](COCc3cccc(Cl)c3)C(C)C)CC2)cc1
18	-1	6	CC1CCC(C(O)(C(=O)O)C2CCCCC2)CC1C (stereo not drawn)

(cont.)
Env fusion inh	MT1-MMP act inh	MT1-MMP act inh RFP	Structure
24	-1	4	O=C(Nc1ccc2c(c1)OCCO2)C1c2ccccc2OCC(=O)N1Cc1ccco1 (stereo not drawn)
34	1	1	COc1ccc(C2=Nc3ccccc3N(C(=O)c3cccnc3)C2C(=O)NC2CCCC2)cc1 (stereo not drawn)
-6	2	-8	O=C(c1ccc(Cl)c(Cl)c1)N1CCC(=O)N([C@H](COCc2ccc(Cl)cc2)Cc2ccccc2)CC1
-45	3	0	Fc1ccc(N2C(=S)SC(=Nc3ccccc3)C2=Nc2ccccc2)cc1
-41	1	1	O=C(NC1CCCC1)C1c2ccccc2OCC(=O)N1CCc1c[nH]c2ccccc12 (stereo not drawn)
18	6	4	Cc1ccc(CN2C(=O)CCC2(C)c2nnnn2Cc2ccccc2)cc1 (stereo not drawn)
11	-1	-1	CCOC(=O)CN1CC(C)(C)N(CC(=O)OCC)CC1(C)C
-4	4	-4	CCOC(=O)[C@]12CCCC=C1N(Cc1cccc3ccccc13)C(=O)[C@H](CC(=O)N1CCN(C(=O)C3CC3)CC1)C2
-59	-1	3	CC(C)(O)CN(C(=O)c1ccccc1)C1CCCCC1
-21	-4	1	C=C1C(=O)OC2C1C(OC(=O)C(C)=CC)CC(=C)C1C(O)C3OC3(C)C21O (stereo not drawn)
-14	1	4	CN(C)CCNc1cccc2sc3ccc(O)cc3c(=O)c12
-4	-1	-2	CC12CCC(C(=O)C1)C1(C)CCCC(=O)C21 (stereo not drawn)
-32	5	2	CC(C)C[C@H]1CN(CCCC[C@H]2CNC(=O)C(=O)N2CCC2CCCCC2)C(=O)C(=O)N1CCC1CCCCC1
-2	3	6	CCCc1nc2ccccc2n1C(CC)C(=O)NC(C)(C)C (stereo not drawn)
34	6	6	CC(C)[C@@H]1Cc2[nH]n(C)c(=O)c2[C@H](c2ccc(F)cc2)O1

Structural class, the compounds so far containing a carbonyl joined to an NH by a bond outside any ring.
Env fusion inh	MT1-MMP act inh	MT1-MMP act inh RFP	Structure
-62	-1	5	COc1cc(OC)cc(C(=O)NCC(=O)OCC(=O)NCc2ccco2)c1
-40	5	1	CCCCCCCCN1C(=O)[C@H](CC(=O)NCCCN2CCCC2=O)C[C@@]2(C(=O)OC)CCCCC=C12
3	6	4	Cc1cccc(C)c1NC(=O)C1(C)CSCC(=O)N1Cc1ccco1 (stereo not drawn)
-23	6	-3	COc1ccc(CN2C(=O)C(CC(=O)NCCCCc3ccccc3)CC(C(=O)N3CCCCCC3)=C2C)cc1 (stereo not drawn)
12	5	-2	COC(=O)c1sc(NC(=O)CN2CCN(c3cccc(Cl)c3)CC2)c(C(=O)OC)c1C
24	-1	4	O=C(Nc1ccc2c(c1)OCCO2)C1c2ccccc2OCC(=O)N1Cc1ccco1 (stereo not drawn)
34	1	1	COc1ccc(C2=Nc3ccccc3N(C(=O)c3cccnc3)C2C(=O)NC2CCCC2)cc1 (stereo not drawn)
-41	1	1	O=C(NC1CCCC1)C1c2ccccc2OCC(=O)N1CCc1c[nH]c2ccccc12 (stereo not drawn)
-2	3	6	CCCc1nc2ccccc2n1C(CC)C(=O)NC(C)(C)C (stereo not drawn)

Next part
Env fusion inh	MT1-MMP act inh	MT1-MMP act inh RFP	Structure
-13	4	-2	CC(=O)C(=Cc1ccccc1)c1ccccc1
-2	-1	5	CSc1ccc(CN2CCC(C)(Oc3ccccc3C)C2)cc1 (stereo not drawn)
0	0	-6	CCOC(=O)[C@]12CCCC=C1N(Cc1ccc(Cl)cc1Cl)C(=O)[C@H](CC(=O)NCc1ccc(C)o1)C2
-7	-4	3	NC(=O)C(CCc1nc2ccccc2[nH]1)NS(=O)(=O)c1ccccc1 (stereo not drawn)
1	6	0	COc1ccc(C(=O)c2[nH]c(N)c(C(=O)NCCc3c[nH]c4ccccc34)c2-c2ccc(Br)cc2)cc1
25	4	-16	CCOC(=O)CC1(C)Oc2ccccc2N1S(=O)(=O)c1ccc(C)cc1 (stereo not drawn)
-6	6	-1	Cc1ccc(C)c(C(O)c2ncc(-c3ccc(C(F)(F)F)cc3)[nH]2)c1 (stereo not drawn)
29	-11	-8	O=C(NC1CCCCC1)C(c1ccncc1)n1c(=O)c(-c2cc3ccccc3[nH]2)nc2ccccc21 (stereo not drawn)
15	7	-4	CCOC(=O)[C@]12CCC=C1N(Cc1ccc3c(c1)OCO3)C(=O)[C@H](CC(=O)NCc1cccc3ccccc13)C2
-8	-3	-5	O=C(NC1CC1(c1ccccc1)c1ccccc1)c1ccccc1 (stereo not drawn)
36	-5	-8	Cn1cnc2nc(Cl)nc(Cl)c21
-1	-1	-5	CCC(CC)C(=O)Oc1c(C(=O)N(C)C)cccc1-c1ccccc1
13	-2	-1	Clc1ccc(-c2nc3c4ccccc4ccn3c2Cc2cccc(Cl)c2)cc1
1	-2	4	Cc1cccc(S(=O)(=O)NC(=O)C2(C)CCN2C(=O)CC2CCCCC2)c1 (stereo not drawn)
-10	-2	0	COC(=O)[C@]12CCCCC=C1N(CCc1ccc(OC)c(OC)c1)C(=O)[C@H](CC(=O)NCc1ccc(C)o1)C2

Single records (already shown). Order of values: Env fusion inh | MT1-MMP act inh | MT1-MMP act inh RFP
`O=C(NC1CCCCC1)C(c1ccncc1)n1c(=O)c(-c2cc3ccccc3[nH]2)nc2ccccc21` (stereo not drawn) is listed as 29 | -11 | -8
`Cc1ccc(N(O)C(C)(C)C)cc1` is listed as -1 | -1 | 1
`Cc1cccc(C)c1NC(=O)C1(C)CSCC(=O)N1Cc1ccco1` (stereo not drawn) is listed as 3 | 6 | 4
`OC[C@@H]1CN(CCN2CCOCC2)C[C@H](n2cnc3c(N4CCCC4)ncnc32)O1` is listed as -11 | 2 | 5

(next part)
Env fusion inh	MT1-MMP act inh	MT1-MMP act inh RFP	Structure
-12	4	-9	CCCCCCCCN1C(=O)[C@H](CC(=O)N2CCN(C(=O)c3ccco3)CC2)C[C@@]2(C(=O)OCC)CCCC=C12
-27	5	2	O=C1NC[C@H](CCCCN2CCN(Cc3ccccc3)C(=O)C2=O)N(CCc2ccc(O)cc2)C1=O
1	-4	-2	O=C(O)c1sc(C(=O)O)c(-c2ccccc2)c1-c1ccccc1
7	-7	-12	CCOC(=O)[C@]12CCC=C1N(Cc1ccc(Cl)cc1Cl)C(=O)[C@H](CC(=O)NCC1CCCCC1)C2
-37	7	6	CC1Cc2[nH]c(=S)[nH]c(=O)c2C(c2ccc(C(C)C)cc2)O1 (stereo not drawn)
32	-3	-24	COCc1ccc(C(=O)Nc2cccc(S(=O)(=O)N(C)c3ccccc3)c2)cc1
-102	-43	-8	COC1C(CO)OC(n2c3c(Cl)cccc3c3c4c(c5c6cccc(Cl)c6[nH]c5c32)C(=O)NC4=O)C(O)C1O (stereo not drawn)
11	-2	-1	Cc1cccc(C)c1-n1nnnc1C1c2ccccc2C(=O)N1CCc1ccc(O)cc1 (stereo not drawn)
6	1	4	O=C(O)c1ccccc1Cc1ccc2c(c1)CCCC2
-12	0	1	O=CN/C=C/c1cccc(O)c1
8	-7	-14	CCCCC[C@H](C)N1C[C@H](COCc2ccccc2)Oc2cc(N3CCC[C@@H]3COC)ccc2S1(=O)=O
17	-5	-1	CCCC(=O)N1CCC1(C)C(=O)NS(=O)(=O)c1cccc(C)c1 (stereo not drawn)
-1	3	2	CC1Cc2[nH]c(=S)[nH]c(=O)c2C(c2ccc(F)cc2)O1 (stereo not drawn)
-219	-5	-11	COC(=O)[C@]12CCCCC=C1N(Cc1ccccc1)C(=O)[C@H](CC(=O)NCC13CC4CC(CC(C4)C1)C3)C2
0	6	8	C[N+](C)(C)CCN1C(=O)c2ccccc2C1=O

Remaining list, next part.
Env fusion inh	MT1-MMP act inh	MT1-MMP act inh RFP	Structure
7	-11	-9	Cc1cccc(C)c1NC(=O)C(c1ccc(C#N)cc1)n1c(=O)c(-c2ccccc2)nc2ccccc21 (stereo not drawn)
8	-3	5	COc1cccc(CNC(=O)[C@@H]2CCCN2C(=O)[C@@H]2CCCN2C(=O)c2c(F)cccc2F)c1
-2	-1	0	O=C(CCNS(=O)(=O)c1ccc2ccccc2c1)NCCOc1ccccc1
-8	5	1	O=C1CCCC(=O)N1CCCCCCN1C(=O)CCCC1=O
-16	1	0	COc1cc(OC)cc(C2=Cc3ccccc3C(CC(C)=O)N2c2ccc(C#CCCO)cc2)c1 (stereo not drawn)
-11	5	0	O=C(O)c1cscc1Cc1cccs1
3	-2	-8	CC(=O)N1c2ccccc2S(=O)(=O)c2c1ccc1ccccc21
10	6	7	Cc1ccc(CNC(=O)OC2CC3CC2[C@H]2CCCCN2C3=O)cc1 (stereo partly drawn)
61*	-5	-10	CCOc1ccccc1CN1[C@@H](c2ccc(OC)cc2)CC(C(=O)OC)(C(=O)OC)[C@H]1c1ccccc1
16	3	3	COC(=O)C1=CN(c2ccc(N3CCOCC3)cc2)C(N)=C(C#N)C1c1ccccc1 (stereo not drawn)
-14	-41	-40	COC(=O)[C@@]1(Cc2ccc(OC)cc2)[C@H]2c3cc(C(=O)N4CCCC4)n(Cc4ccc(OC(F)(F)F)cc4)c3C[C@H]2CN1C(=O)c1ccccc1
11	-5	-9	Cc1nc2c(OCCOc3ccccc3)cccn2c1N(C)C(=O)CCC1CCCC1
